GLA inh pH 4.5 = inhibitors of human alpha-galactosidase A at pH 4.5 | purified enzyme, 4-MU-alpha-Gal fluorescence, pH 4.5 | activity change, negative = inhibition, % at 105 µM | 230,000 tested, under 10 active; inconclusive = small, poorly fitted or top-dose-only inhibition, or a rising curve; inactive = flat fitted curve, though single readings scatter; no compound was filed as active;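 further: 0% = full activity with enzyme and -100% = basal without enzyme; dose as in the result columns while the protocol names 77 µM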
miR-21 FLuc = raises the signal of a miR-21 reporter; HeLa miR-21 FLuc reporter, luciferase, 48 h; 340,000 tested, under 10 active; Potency, µM (highest dose often 38.3 µM), without a hit: at the top dose reporter change, positive = more light; active = well fitted rising curve with a large enough effect; inconclusive = small, poorly fitted or top-dose-only effect; inactive = no such curve, though single readings can be large or run the other way;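 further: % of control where 0% means no effect; miR-21 action dims this reporter so a rising signal means less miR-21 action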
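Using DMEM plus 10% FBS, HeLa miR-21-FLuc cells are incubated with test compounds (final up to about 40uM) for 48 hours; firefly luciferase signal is then imaged following reagent-mediated lysis.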
Rango release inh = inhibitors of RanGTP-induced Rango-importin beta complex dissociation | Potency, µM (titrated, usually from 46.1 µM), for inactives: top-dose activity change, negative = inhibition | 340,000 compounds, 0.071% hits | Biochemical FRET Rango-importin beta, RanGTP-induced dissociation | O95149+P62826; active means falling FRET ratio curve, often poorly fitted, with flat reads before Ran was added; inconclusive means other falling curves, or compound fluorescence or quenching; inactive means flat or rising ratio curve;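 further: potency means the concentration at half of the fitted maximal effect; % of control where 0% means no effect; nearly all actives have a fitted effect of over 45% in size; -100% = wells without RanGTP and RCC1; the record marks most hits as doubtful in a second field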
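FRET read at 45 min, room temperature: inhibitors block the CFP/YFP signal rise when RanGTP (0.6 uM Ran, 2 mM GTP, 0.2 uM RCC1) frees Rango (0.1 uM) from importin beta (0.25 uM). Pre-read after 5 min compound exposure flags interference.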
Rango-impB inh = inhibitors of Rango-importin beta complex formation; Q14974; Rango CFP/YFP FRET sensor + importin beta, 45 min; Potency, µM (highest dose often 92.2 µM), without a hit: at the highest dose inhibition of complex formation; 340,000 compounds, 0.031% hits; active = rising FRET ratio curve, often small or poorly fitted; inconclusive = mostly compound fluorescence or quenching in the first reads; inactive = flat curves in all reads;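 further: potency means the concentration at half of the fitted maximal effect; 0% = DMSO wells and 100% = buffer wells lacking importin beta; nearly all actives have a fitted effect of over 15% in size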
Target sequence (Q14974 whole entry, looked up): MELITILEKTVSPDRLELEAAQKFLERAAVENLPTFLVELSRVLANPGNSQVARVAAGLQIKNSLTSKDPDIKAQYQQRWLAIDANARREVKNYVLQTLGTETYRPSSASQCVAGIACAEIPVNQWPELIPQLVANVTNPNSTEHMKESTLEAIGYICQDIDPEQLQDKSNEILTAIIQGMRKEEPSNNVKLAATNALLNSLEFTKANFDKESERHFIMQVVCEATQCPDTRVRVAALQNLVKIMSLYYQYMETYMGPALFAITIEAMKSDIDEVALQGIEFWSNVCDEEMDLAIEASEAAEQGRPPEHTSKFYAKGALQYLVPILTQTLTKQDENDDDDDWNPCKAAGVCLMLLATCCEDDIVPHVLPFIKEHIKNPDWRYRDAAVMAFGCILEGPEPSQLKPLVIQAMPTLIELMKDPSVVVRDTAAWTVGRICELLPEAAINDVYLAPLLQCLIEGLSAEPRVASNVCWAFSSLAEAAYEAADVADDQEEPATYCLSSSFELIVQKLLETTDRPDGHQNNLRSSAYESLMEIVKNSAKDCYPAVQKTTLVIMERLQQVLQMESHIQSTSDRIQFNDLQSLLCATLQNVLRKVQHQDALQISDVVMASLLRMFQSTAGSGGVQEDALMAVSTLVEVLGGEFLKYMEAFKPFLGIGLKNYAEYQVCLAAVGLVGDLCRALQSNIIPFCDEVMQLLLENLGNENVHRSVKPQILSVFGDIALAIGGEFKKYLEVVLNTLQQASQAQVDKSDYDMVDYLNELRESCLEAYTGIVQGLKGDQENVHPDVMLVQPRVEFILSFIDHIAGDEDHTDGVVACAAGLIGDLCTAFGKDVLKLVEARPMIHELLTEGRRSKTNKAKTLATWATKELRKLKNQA
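Inhibition scored from the CFP 486 nm/YFP 530 nm FRET ratio 45 min after adding 0.125 microM importin beta to 50 nM Rango biosensor preincubated 5 min with compound (room temperature, PBS with DTT, Tween-20, BSA). No-importin wells as positive control.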
* = called active by the depositor; ? = inconclusive; . = no result given; & = joins results of further samples. An excerpt. The share of hits here may be higher or lower than overall.

entry	Compound	GLA inh pH 4.5	miR-21 FLuc	Rango release inh	Rango-impB inh
1	Cc1cc(NC(=O)C2CC(c3ccc(Cl)cc3)=NO2)no1 (stereo not given)	10	-4%	-4%	1.2%
2	Cc1[nH]c2ccccc2c1/C=N/Nc1cccc(C(=O)O)c1	-4	-83%	?	?
3	CN(CCOC(=O)CN1C(=O)c2ccccc2C1=O)C1=NS(=O)(=O)c2ccccc21	-4	0%	.	.
4	CCn1nc(C)c(CNC(=O)C2CCC(=O)N(Cc3cccc(F)c3)C2)c1C (stereo not given)	.	-4%	15%	2.2%
5	CN1c2ccccc2Oc2c(c(=O)n(C)c(=O)n2C)C1c1cccc([N+](=O)[O-])c1 (stereo not given)	0	-6%	6%	-0.9%
6	Cc1ccccc1-c1nc(S(=O)(=O)c2ccccc2)c(NCCCN2CCOCC2)o1	.	.	5%	-6.6%
7	O=S(=O)(NCC(c1cccnc1)N1CCOCC1)c1ccc(Cl)cc1 (stereo not given)	9	0%	-1%	3.4%
8	Nc1nc(SCc2ccccc2)c2[nH]cnc2n1	.	-25%	28%	0.9%
9	CC(=O)c1c(C)[nH]c(C(=O)OCC(=O)Nc2sc3c(c2C#N)CCCC3)c1C	0	-1%	-3%	-2.3%
10	N/C(=N\OC(=O)c1ccc2c(c1)OCO2)c1cccnc1	-8	-62%	9%	-0.7%

Fetched one by one from the entries so far:
entry	Compound	GLA inh pH 4.5	miR-21 FLuc	Rango release inh	Rango-impB inh
6	Cc1ccccc1-c1nc(S(=O)(=O)c2ccccc2)c(NCCCN2CCOCC2)o1	.	.	5%	-6.6%
10	N/C(=N\OC(=O)c1ccc2c(c1)OCO2)c1cccnc1	-8	-62%	9%	-0.7%
5	CN1c2ccccc2Oc2c(c(=O)n(C)c(=O)n2C)C1c1cccc([N+](=O)[O-])c1 (stereo not given)	0	-6%	6%	-0.9%
8	Nc1nc(SCc2ccccc2)c2[nH]cnc2n1	.	-25%	28%	0.9%
4	CCn1nc(C)c(CNC(=O)C2CCC(=O)N(Cc3cccc(F)c3)C2)c1C (stereo not given)	.	-4%	15%	2.2%
1	Cc1cc(NC(=O)C2CC(c3ccc(Cl)cc3)=NO2)no1 (stereo not given)	10	-4%	-4%	1.2%

Other compounds:
entry	Compound	GLA inh pH 4.5	miR-21 FLuc	Rango release inh	Rango-impB inh
11	CN(C)c1ccc(CN(C(=O)COc2ccc(Br)cc2)C2CCS(=O)(=O)C2)cc1 (stereo not given)	9	-6%	-5%	-1.4%
12	COc1ccccc1NC(=O)CCc1nc(-c2cccs2)no1	0	-10%	9%	-2.6%
13	CN1C(=O)N(C)c2ccc(Br)c3cccc1c23	.	-2%	5%	0.1%
14	CC(C)CNC(=O)c1ccccc1NC(=O)CN(c1ccc2c(c1)OCCO2)S(C)(=O)=O	-14	-4%	2%	4.2%
15	Cc1ccc(-n2ncc3c(=O)n(CC(=O)NC4CCCC4)cnc32)cc1C	1	-4%	-11%	1.9%
16	Cc1ccc(C)c(OCC(=O)N2CCOCC2)c1	-4	0%	2%	0.1%
17	O=C(CN1C(=O)c2ccccc2S1(=O)=O)NCc1ccc(F)cc1	.	2%	4%	2.0%
18	C[n+]1c2n(c3ccccc31)N=C(c1cc(C(C)(C)C)c(O)c(C(C)(C)C)c1)CS2	-1	?	18%	-0.1%
19	C#CCN1N=C(c2ccc(C)cc2)CSC1=O	.	.	8%	-3.2%
20	N#CCc1ccc(C(=O)c2ccccc2F)s1	-3	-26%	-6%	-0.1%
21	COc1ccc2cc(-c3[nH]ncc3CN3CCCN(c4ccccc4)CC3)ccc2c1	2	-23%	7%	-0.8%
22	CCOC(=O)N1CCC(NC(=O)c2ccc(CS(=O)c3cccc(C)c3)o2)CC1 (stereo not given)	.	-3%	9%	-2.7%
23	CC(C)NC(=O)CSc1nnc(-c2ccco2)n1N	9	0%	11%	0.2%
24	O=C(NCN1CCCCC1)c1cccnc1	1	-5%	4%	3.6%
25	COc1ccc(Cl)cc1NC(=O)CN1C(=O)NC2(CCCC2)C1=O	.	6%	-17%	-4.9%
26	N/C(Cc1ccc(Cl)cc1Cl)=N\OC(=O)Cc1ccccc1	-3	-18%	15%	0.0%
27	CC(C)CNC(=S)N1CCN(C)CC1	9	-3%	1%	?
28	O=C(CN1C(=O)C2CC=CCC2C1=O)NC1=NCCS1 (stereo not given)	1	2%	6%	-4.3%
29	COc1ccc(Nc2nnc(SCC(=O)N3CCCC3)s2)cc1	-2	-7%	4%	-0.8%
30	CN1CCN(C(=O)C2=C[C@@H](C(C)(C)C)C[C@@H](OCc3ccc(CO)cc3)O2)CC1	-3	-5%	3%	-0.9%
31	Cc1ccc(-n2nc(C)c(C3(O)C(=O)N(C(C)C)c4ccccc43)c2N)cc1 (stereo not given)	-2	-5%	-15%	-1.1%
32	NC(=O)COC(=O)c1c2c(nc3ccccc13)CCC2	-10	0%	-23%	?
33	CCOC(=O)C1(Cc2cccc(OC)c2)CCN(Cc2cnc(SC)nc2)CC1	5	4%	-27%	?
34	CCOc1ccc(CNS(=O)(=O)c2ccc3c(c2)CC(=O)N3C)cc1	.	0%	9%	-1.5%
35	O=C(N/N=C/c1cn(-c2cccs2)nc1-c1ccccc1)c1ccccc1Br	-13	-16%	8%	3.6%
36	COc1cccc(NC(=O)Nc2nc(SC(C)(C)C)ns2)c1	.	24%	0%	-0.8%
37	O=C(Cc1cccc2ccccc12)Nc1nc2ccccc2[nH]1	-3	0%	25%	-4.3%
38	Cc1cccc(NC(=O)c2ccc(NC(=O)c3ccccc3Br)cc2)c1	.	14%	19%	0.6%
39	CC(C)COc1ccc(-c2nnn(CC(=O)N3CCCC3)n2)cc1	11	-34%	-12%	0.0%
40	O=C1CC(N2CCCCCC2)C(=O)N1c1ccc(F)cc1 (stereo not given)	-12	0%	-5%	4.5%
41	CCOc1cccc(C(=O)Nc2cccc(-c3nnc(-c4ccccc4)o3)c2)c1	5	-18%	0%	1.4%
42	Cc1ccc(NCC(=O)N/N=C/c2ccc(OC(=O)c3ccco3)cc2)cc1	-4	-2%	9%	5.4%
43	CN(C)c1ccc(C(=O)OCC(=O)NC2CCCCCC2)cc1	7	-2%	-6%	-5.5%
44	O=C(COC(=O)c1ccco1)NCc1ccccc1Cl	-9	0%	?	0.8%
45	C/C(N)=C(/C#N)C(=O)CSc1nnnn1-c1ccccc1	-7	-19%	0%	-1.6%
46	CCCCC(=O)Nc1cccc(NC(=S)NC(=O)COc2ccccc2Cl)c1	-4	-5%	1%	-0.3%
47	CCCc1[nH]nc2c1C(C1CC=CCC1)C(C#N)=C(N)O2 (stereo not given)	-13	17%	3%	-7.0%
48	O=C(OCCN1CCCCC1)c1c[nH]c2ccccc12	-6&0	.	-3%	-6.2%
49	COCCSc1nnc(NC(=O)c2ccc3c(c2)OCO3)s1	-4	-26%	1%	0.0%
50	CC(C)(C)OC(=O)N[C@@H](Cc1ccccc1)C(=O)N1CCC(C(=O)NCC(=O)O)CC1	.	-1%	-11%	1.4%
51	Cc1onc(-c2ccccc2Cl)c1-c1nc(-c2ccccn2)no1	3	-7%	2%	0.9%
52	O=C(COc1ccccc1)N=C1SC2CS(=O)(=O)CC2N1Cc1ccccc1 (stereo not given)	.	-1%	-13%	0.8%
53	COc1ccc(C(=O)Nc2ccc(C(=O)Nc3cccc(C)c3)cc2)cc1	.	-3%	-7%	5.1%
54	Cc1ccc(-c2cc(C(F)(F)F)c(C#N)c(SCCC#N)n2)o1	-2	-2%	?	?
55	S=C(NCC1CCCO1)NC1CCCCC1 (stereo not given)	-2	-5%	4%	-1.2%
56	COc1ccc(C=O)cc1COc1ccc([N+](=O)[O-])c(C)c1	5	3%	0%	0.3%
57	CC(=O)c1c(C)[nH]c(C(=O)OCC(=O)Nc2nnc(-c3ccccc3)o2)c1C	.	.	-1%	-1.2%
58	CCC(CC)C(=O)NCCc1ccc(OC)c(OC)c1	-5	-13%	-9%	-0.4%
59	CCc1ccc(C(=O)NNC(=S)Nc2ccc(S(N)(=O)=O)cc2)s1	-12	-14%	-21%	-3.0%
60	CCOC(=O)C1(CCOc2ccccc2)CCN(Cc2ccc(C#CCCO)cc2)CC1	.	21%	-16%	-2.8%

Other entries:
entry	Compound	GLA inh pH 4.5	miR-21 FLuc	Rango release inh	Rango-impB inh
61	COC(=O)C1=CN(c2ccc(OC)cc2)C=C(C(=O)OC)C1c1ccc([N+](=O)[O-])cc1	.	0%	-6%	-3.0%
62	COC(=O)CSc1nnc(CNS(=O)(=O)c2ccc(Cl)cc2)n1C	8	0%	-1%	-0.9%
63	CCOc1ccc(NC(=O)CSc2nc(C)cc(C)n2)cc1	-2	-6%	7%	0.4%
64	Cc1ccc(NC(=O)CCNS(=O)(=O)c2ccc3c(c2)oc(=O)n3C)c(C)c1	2	-4%	15%	-0.6%
65	O=C(NCC1CCCO1)c1ccc2c(=O)n(Cc3cccc(Br)c3)c(=S)[nH]c2c1 (stereo not given)	7	2%	6%	-1.5%
66	CCN(CC(=O)Nc1ccc2c(c1)OCCO2)C(=O)/C=C/c1cccc(C(F)(F)F)c1	.	.	-4%	2.6%
67	COc1cc(NC(=O)CN(C)C2CCCCC2)c(C)cc1[N+](=O)[O-]	-6	-10%	26%	-2.7%
68	Cc1ccc(-c2csc3nc4cc(C(N)=O)ccc4c(=O)n23)cc1	0	-5%	?	?
69	CCOCCCNC(=O)c1c[nH]c2ccc(S(=O)(=O)Nc3cccc(OC)c3)cc2c1=O	4	3%	-9%	-4.2%
70	CCCNC(=O)c1ccccc1SCc1c(C)noc1C	.	7%	-6%	-3.1%
71	O=S(=O)(NC(=NC1CCCCC1)c1ccccc1)c1ccc(F)cc1	.	-5%	-7%	-2.3%
72	Cc1nc(NCCCN2CCOCC2)c2oc3ccccc3c2n1	.	-3%	6%	1.8%
73	Cc1nc2cc(C(=O)N3c4ccccc4CC3C)ccc2s1 (stereo not given)	-2	19%	4%	-2.6%
74	Cc1nc2ccccc2c2c1C(=O)N(c1ccc(C(=O)O)cc1)C2=O	1	-1%	7%	0.1%
75	Nc1c(-c2ccccc2)cnn1-c1cccc(C(F)(F)F)c1	-7	-26%	-6%	0.6%
76	C/C=C/CSc1nc2c(c(=O)[nH]c(=O)n2C)n1Cc1ccc(C)cc1	4	-17%	-1%	-3.1%
77	COCCn1c(C(C)C)nc2ccccc21	-1	0%	0%	0.4%
78	O=C(Cc1c(F)cccc1Cl)Nc1ncc([N+](=O)[O-])s1	0	-16%	-7%	4.5%
79	O=[N+]([O-])c1cccc(S(=O)(=O)Nc2ccc(S(=O)(=O)N3CCCC3)cc2)c1	.	.	-7%	0.4%
80	COc1ccc(N2CSC3=C(C#N)C(c4cc(OC)ccc4OC)CC(=O)N3C2)c(OC)c1 (stereo not given)	2	-8%	?	?
81	Cc1ccc(S(=O)(=O)Nc2nc3ccc(S(C)(=O)=O)cc3s2)cc1	9	-5%	0%	3.9%
82	CCOC(=O)c1c(NC(=O)CSc2nnnn2-c2ccc3c(c2)OCO3)sc(C)c1C	-13	-3%	1%	-2.2%
83	COc1cc(/C=C/C(=O)O)cc(S(=O)(=O)N2CCc3ccccc32)c1OC	6	-14%	-7%	2.8%
84	O=C(C[C@H]1C[C@H](C(=O)N2CCCCC2)[C@@]2(CCc3ccccc3)c3[nH]c4cc(-c5ccco5)ccc4c3CCN2C1=O)NCCC1=CCCCC1	.	.	-32%	?
85	Cc1cc(C)n(CCC(=O)N/N=C/c2ccc(O)cc2O)n1	4	12%	12%	-0.4%
86	COc1ccc(N2CCN(Cc3nc4c(c(=O)n(C)c(=O)n4C)n3C(C)C(C)=O)CC2)cc1 (stereo not given)	7	-13%	-11%	2.7%
87	CCN(CC)S(=O)(=O)c1ccc(/C=C/C(=O)OCC(=O)NCc2ccco2)cc1	.	.	11%	0.1%
88	CCOC(=O)c1cccc(NC(=O)c2ccc3c(c2)OCO3)c1	.	-30%	10%	1.0%
89	CCCCn1c(SCC(=O)N2CCOCC2)nnc1-c1ccoc1C	-12	-5%	0%	1.5%
90	CC(=O)NS(=O)(=O)c1ccc(Nc2ccc([N+](=O)[O-])c3nonc23)cc1	-1	0%	3%	9.1%

Source: PubChem BioAssay (National Center for Advancing Translational Sciences (NCATS))
